# MT1-MMP act inh – inhibitors of human MT1-MMP activation. P50281. HT1080 RFP-PRO-GFP cells, GFP/RFP ratio fluorescence, overnight; percent of plate control window, DMSO zero. GFP/RFP ratio change, % at 20 µM. 360,000 tested, 0.061% active;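 active = GFP/RFP ratio change of at least 30% with cell ATP level not reduced by more than half and red fluorescence within 50% of control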; also: strong numbers were not always called active
#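 Test system: HT1080 RFP-PRO-GFP cells; Benchmarks: DMSO and RFP-L50D-GFP cell wells; Timing: cells overnight before dosing, compound overnight, 37 °C, 5% CO2; Compound: one 20 µM compound dose with 1% DMSO; Read-out: GFP/RFP fluorescence ratio.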
# UUG fidelity – modulators of start codon recognition fidelity in yeast. 350,000 tested, 0.13% active. AID 602363. S. cerevisiae UUG-firefly luciferase reporter, luminescence/redox ratio. activity score, % at 18.7 µM;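 active = replicate mean at a twofold rise or more, about +100% in these data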;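 also: firefly luciferase made from a UUG start codon reports start codon fidelity; reporter light over untreated wells divided by growth signal over untreated wells; some hits fall short of that in this replicate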
# Env fusion inh – HIV envelope-mediated fusion inhibition; HeLa-JRFL Env/CEM21 cell fusion, luciferase; inhibition, % at 12.3 µM; 360,000 tested, 1.1% active; AID 651610;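 active = mean replicate inhibition score of at least 50 and every replicate individually at or above 50; inconclusive = only one of the two criteria met; inactive = mean below 50 and not all replicates reaching 50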;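 also: 0% = plate neutral controls and 100% = maraviroc near 300 nM; one replicate is shown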
# MT1-MMP act inh RFP – recorded beside MT1-MMP act inh, whose call it bears; RFP signal change, %; measured here: RFP expression control read;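 0 = vehicle wells; hits needed this value within 50% of zero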
# Starred values were filed as active, the others as inactive; u = inconclusive; x = no result given; [ ] = dose if it differs, or a comment. Only part of the results is shown; the hit share may differ from the screen's.
# Fields – MT1-MMP act inh, MT1-MMP act inh RFP, UUG fidelity, Env fusion inh
CCNC(=O)c1cc2c(c(-c3cccc(-c4cccc(C(=O)N(C)C)c4)c3)n1)[C@H](CCO)N(S(=O)C(C)(C)C)C2 (some centres not stated)
 : 0, 7, 6, x
C=CCOc1ccc(CN(C)C(=O)c2ccc(CNS(=O)(=O)c3ccc(C)c(C)c3)cc2)cc1
 : -7, -25, -11, x
O=C(NNC(=O)c1ccc(F)c(S(=O)(=O)N2CCOCC2)c1)c1ccc([N+](=O)[O-])cc1
 : 3, -1, -7, x
COc1ccc(CNS(=O)(=O)CCNCc2ccccc2OC)cc1
 : 6, 5, -22, x
COc1ccc(CNC(=O)COC(=O)c2ccc(OCC3CCCO3)cc2)cc1 (configuration not stated)
 : 4, 3, 3, x
CC(C)(C)n1nnnc1C(c1ccccc1)N1CCN(c2ncccn2)CC1 (configuration not stated)
 : 1, 2, x, -2
NC(N)=Nc1ccc(C=C2C=Cc3ccccc32)cc1
 : -5, -5, x, -15
Nc1nc2ncccn2c1-c1ccccc1
 : -3, 3, x, 21
COc1cccc(C2c3cc4c(cc3OC(N3CCCC3)C2C)OCO4)c1O (configuration not stated)
 : -4, -11, x, -2
CCOC(=O)[C@]12CCCC=C1N(Cc1ccco1)C(=O)[C@H](CC(=O)NCc1cccs1)C2
 : 4, 3, x, -13
O=C(O)c1ccccc1C(=O)OC1CC2CCC1C2 (configuration not stated)
 : -5, 1, x, -1
COc1ccc2ccccc2c1C1NC(=O)c2ccccc2N1 (configuration not stated)
 : -5, -6, x, -26
CC[C@H](CO)Oc1cc(NCc2cccc(N)c2)c2ncn(C(C)C)c2c1
 : 10, 2, x, 13
CCNC(=O)c1cc2c(c(-c3cccc(-c4cncnc4)c3)n1)[C@@H](CCO)N(C(C)=O)C2
 : 1, 8, x, 7[16.7 µM]
CCOC(=O)[C@]12CCC=C1N(Cc1ccc3c(c1)OCO3)C(=O)[C@H](CC(=O)N1CCN(C(=O)c3ccco3)CC1)C2
 : 1, 0, x, -10
COC(=O)[C@]12CCCCC=C1N(CCc1ccc(OC)c(OC)c1)C(=O)[C@H](CC(=O)N1CCN(C(=O)c3ccco3)CC1)C2
 : 5, 3, x, 0
COC(=O)[C@]12CCCCC=C1N(Cc1ccc(Cl)cc1Cl)C(=O)[C@H](CC(=O)NCC13CC4CC(CC(C4)C1)C3)C2
 : -31, -33, x, 10
CC[C@@H]1Cc2[nH][nH]c(=O)c2[C@H](c2ccc(Cl)cc2)O1
 : 5, 4, x, -9
CCCCCNC(=O)C(c1ccc(OC)cc1)n1c(=O)c(-c2ccccc2)nc2ccccc21 (configuration not stated)
 : -11, -15, x, 3
CC(=O)C1(O)CCC2C3CCC4CC(=O)CCC4(C)C3C(=O)CC21C (configuration not stated)
 : -2, -5, x, -19
Cc1cccc(CN2CCN(C3CN(Cc4cn(Cc5cccc(Cl)c5)nn4)S(=O)(=O)C3)CC2)c1 (configuration not stated)
 : 4, -5, x, -2
N#Cc1cccc(C2CC(OCCF)=CC(=O)O2)c1 (configuration not stated)
 : -1, 1, x, -2
COc1ccc(C(=O)C[C@@H]2OC3CCCCC3N2S(=O)(=O)c2ccc(C)cc2)cc1OC (some centres not stated)
 : -1, -7, x, -3
O=c1[nH]c(CN2CCCCC2)ccc1O
 : -6, 5, x, 7
O=CC(=Cc1ccccc1)c1ccccc1
 : 7, 5, x, 0
COC(=O)C[C@@H]1C=C[C@H](NC(=O)Cc2ccccn2)[C@@H](CO)O1
 : 2, 5, x, 10
Cc1cccc(C)c1NC(=O)C(c1ccncc1)n1c(=O)c(-c2ccccc2)nc2ccccc21 (configuration not stated)
 : -4, -3, x, 13
O=C1Nc2ccccc2C(=O)N(Cc2ccccc2)C1C(=O)NC1CC1 (configuration not stated)
 : 0, 4, x, 0
CNC(=O)C[C@@H]1C(=O)N(CCc2ccccc2)CC1(C)C
 : 2, 2, x, 19
COc1cc2c(cc1NC(=O)C(Cl)Cl)-c1ccc(NC(=O)C(Cl)Cl)cc1C2
 : -15, -14, x, -178
Cc1cccc2c(=O)n3c(cc12)-c1[nH]c2ccccc2c1CC3
 : -7, -6, x, -23
CO[C@@H]1CN(C)C(=O)c2ccc(NS(=O)(=O)c3c(C)noc3C)cc2OC[C@@H](C)NC[C@@H]1C
 : -5, 2, x, 14
COc1cc(CN2C[C@@H](CO)O[C@@H](n3cnc4c(NCc5ccncc5)ncnc43)C2)cc(OC)c1OC
 : 3, 7, x, -42
Cc1ccc(C=C2C=C(c3ccccc3)OC2=O)cc1
 : 6, 2, x, -42
NC(=O)NN=C1CC2CC1C1C=CCC21 (configuration not stated)
 : -5, 4, x, -159
c1ccc(-c2ncnc3ccccc23)cc1
 : 4, -4, x, u
OCC1OC2C(NC(=S)N2c2ccccc2)C(O)C1O (configuration not stated)
 : -1, -3, x, -10
COc1cccc(CNc2nc3cc(-c4ccc(C)cc4)sc3c(=O)n2C)c1OC
 : 0, -24, x, -12
COC(=O)[C@@]1(Cc2ccc(F)cc2)[C@H]2c3cc(C(=O)N4CCCC4)n(Cc4ccc(Cl)c(C(F)(F)F)c4)c3C[C@H]2CN1C(=O)c1ccccc1
 : -28, -39, x, -79
Fc1ccccc1N1CCN(C(c2ccnc3ccccc23)c2nnnn2-c2ccc3c(c2)OCCO3)CC1 (configuration not stated)
 : -2, -7, x, -1
COc1ccc(CN2C(=O)CN(S(C)(=O)=O)CC2(C)C(=O)Nc2c(C)cccc2C)cc1 (configuration not stated)
 : 7, 5, x, 19
O=C1NC[C@H](CCCCN2C[C@H](Cc3ccccc3)N(CCC3CCCCC3)C(=O)C2=O)N(CCc2ccc(O)cc2)C1=O
 : -3, -1, x, 10
Cc1cc(C)nc(N2CCN(c3nc(-c4ccccc4)nc4c3oc3ccccc34)CC2)n1
 : -1, 3, x, 2
CCCCn1nnnc1C(c1ccccc1)N1CCN(CC)CC1 (configuration not stated)
 : 4, 7, x, 0
CCOC(=O)[C@]12CCCC=C1N(Cc1ccc(Cl)cc1Cl)C(=O)[C@H](CC(=O)NCc1ccc(OC)c(OC)c1)C2
 : 6, -32, x, 26
CCCC(=O)N1CCC1(C)C(=O)Nc1ccccn1 (configuration not stated)
 : 4, 7, x, -20
CCCCCc1c(CC)ncn1CCc1ccccc1OC
 : -11, -20, x, 8
O=C1NC[C@@H](CCCCN2C[C@H](Cc3ccc(O)cc3)N(CCc3ccccc3)C(=O)C2=O)N(CC2CCCCC2)C1=O
 : 4, 5, x, -53
ON=C1CCCCCCCC1
 : -2, 4, x, -10
CO[C@H]1CN(C)C(=O)c2ccc(NC(=O)c3ccc4c(c3)OCO4)cc2OC[C@H](C)N(CC2CC2)C[C@@H]1C
 : 8, 4, x, -13

# More structures.
# Fields – MT1-MMP act inh, MT1-MMP act inh RFP, UUG fidelity, Env fusion inh
COc1ccc(CN2C(=O)CCC2(C)c2nnnn2-c2ccc3c(c2)OCCO3)cc1OC (configuration not stated)
 : 5, 4, x, -6
CC(C)NC(=O)C1(C)CSCC(=O)N1Cc1ccco1 (configuration not stated)
 : 12, 5, x, -4
FC(F)(F)c1cc(Cl)c2nc(-c3ccccc3)c(Cc3ccsc3)n2c1
 : 2, 2, x, -6
COc1ccccc1Cc1c(-c2ccc(F)cc2)nc2cc(C)c(Br)c(C)n12
 : -3, -3, x, -22
CCCCOC(=O)C1C2CCC(O2)C1C(=O)OCC (configuration not stated)
 : 9, -3, x, -13
CC(C)NC(=O)C1C(c2ccc(C(F)(F)F)cc2)=Nc2ccccc2N1C(=O)c1cccc(C(F)(F)F)c1 (configuration not stated)
 : -4, -12, x, 25
O=C(COC(=O)c1cc[n+]([O-])cc1)Nc1cccc(Br)c1
 : 1, -4, x, -5
CCN(CC)C1Oc2cc3c(cc2C(c2cc(OC)c(OC)c(OC)c2)C1C)OCO3 (configuration not stated)
 : 18, 0, x, -6
COc1ccc(N2C(c3cc(OC)cc(OC)c3)=Cc3ccccc3C2CC(C)=O)cc1 (configuration not stated)
 : -4, -9, x, 14
Cc1ccc(S(=O)(=O)NCCC2=CCCCC2)cc1
 : -2, -3, x, 2
Cc1ccc(Cn2cc(CN3CC(N4CCN(CCN(C)C)CC4)CS3(=O)=O)nn2)cc1 (configuration not stated)
 : 1, 4, x, 13
O=C1NC[C@@H](CCCCN2C[C@H](Cc3ccc(O)cc3)N(CCC3CCCCC3)C(=O)C2=O)N(CCc2ccc(O)cc2)C1=O
 : 3, 5, x, -29
COc1ccc(C(C(=O)NC(C)(C)C)n2c(=O)c(-c3ccco3)nc3ccccc32)cc1 (configuration not stated)
 : 1, 13, x, -33
CSCCC(c1nc2ccccc2[nH]1)n1c(=O)c(-c2cccnc2)nc2ccccc21 (configuration not stated)
 : 3, 5, x, 2
CC(C)N1CC(=O)N2CSCC2C1=O (configuration not stated)
 : 6, 7, x, 4
CC(C)C1C(=O)N(Cc2cn(CC3CCCCC3)nn2)CCS(=O)(=O)N1Cc1ccc(-c2ccccc2)cc1 (configuration not stated)
 : -24, -27, x, 41
COc1ccc(CCN2CC(C(=O)NCc3cnn(C)c3)CCC2=O)cc1 (configuration not stated)
 : 0, 4, x, 15
Cc1cc(C(=O)N2CCC2(C)C(=O)NS(=O)(=O)c2ccc(F)cc2F)nn1C (configuration not stated)
 : 4, 10, x, -26
CCOC(=O)CC1(CCc2ccccc2)Oc2ccccc2N1S(=O)(=O)c1ccc(C)cc1 (configuration not stated)
 : 4, -11, x, 26
CCC(c1nc2ccccc2[nH]1)n1c(=O)c(-c2cccs2)nc2ccccc21 (configuration not stated)
 : -9, -5, x, 16
Cc1cc(Br)cn2c(Cc3ccccc3)c(-c3ccc(Cl)cc3)nc12
 : -4, -3, x, 13
CCCc1nc2ccccc2n1C(CCSC)C(=O)NC(C)(C)C (configuration not stated)
 : 1, 4, x, -3
Cc1nc(N)nc(N)c1-c1ccc([N+](=O)[O-])cc1
 : -5, 0, x, -12
CC(C)(C)C(c1nc2ccccc2[nH]1)n1c(-c2cccc(S(C)(=O)=O)c2)nc2ccccc21 (configuration not stated)
 : -5, -6, x, -130
COC(=O)[C@]12CCCCC=C1N(Cc1ccc(Cl)cc1Cl)C(=O)[C@H](CC(=O)NCc1cccs1)C2
 : -5, -5, x, 6
COc1cc(CN2C[C@@H](CO)O[C@@H](n3cnc4c(N(C)C(C)C)ncnc43)C2)cc(OC)c1OC
 : 5, 2, x, -11
O=C(O)C1(C(=O)O)CCC2(CCCCC2)CC1
 : 2, 1, x, 1
O=C(NCc1ccccc1)C1c2ccccc2OCC(=O)N1Cc1cccnc1 (configuration not stated)
 : -2, 2, x, -76
CC(C)C(C(=O)NCc1ccccc1)N1CCN(c2ccccc2F)CC1 (configuration not stated)
 : 1, 0, x, u
CSCc1cc(C(=O)NCCN2CCOCC2)c(N)s1
 : 4, 5, x, -16

# Profiles as entered above. Order of values: MT1-MMP act inh, MT1-MMP act inh RFP, UUG fidelity, Env fusion inh
# `COc1cc(CN2C[C@@H](CO)O[C@@H](n3cnc4c(N(C)C(C)C)ncnc43)C2)cc(OC)c1OC` is entered as 5, 2, x, -11
# `O=C(NCc1ccccc1)C1c2ccccc2OCC(=O)N1Cc1cccnc1` (configuration not stated) is entered as -2, 2, x, -76
# `CC(C)C(C(=O)NCc1ccccc1)N1CCN(c2ccccc2F)CC1` (configuration not stated) is entered as 1, 0, x, u
# `COc1ccc(CN2C(=O)CCC2(C)c2nnnn2-c2ccc3c(c2)OCCO3)cc1OC` (configuration not stated) is entered as 5, 4, x, -6

# (next part)
# Fields – MT1-MMP act inh, MT1-MMP act inh RFP, UUG fidelity, Env fusion inh
CC(C)C[C@@H]1COc2cc(N3CC[C@H](O)C3)ccc2S(=O)(=O)N1
 : 8, 5, x, -21
COC(=O)C1(C(=O)OC)C[C@H](c2ccc(OC)cc2)N(Cc2ccccc2OC)[C@@H]1c1ccc(OC)cc1
 : 5, -6, x, 38
Cc1cccc(CN2CCN(C3CN(Cc4cn(Cc5ccccc5)nn4)S(=O)(=O)C3)CC2)c1 (configuration not stated)
 : 6, -3, x, 5
CCCN(CC(=O)Nc1ccccc1OC)C(=O)CN1C(=O)NC(C)(C)C1=O
 : -6, 4, x, -2
CCOC(=O)C(=O)N(C)c1c(CC)nc2c(OCc3ccc(OC)cc3)cccn12
 : 2, -2, x, -13
CCn1nc(C(=O)NCc2nnc3ccccn23)c2ccccc2c1=O
 : -6, 1, x, -27
CCOC(=O)[C@]12CCCC=C1N(Cc1ccco1)C(=O)[C@H](CC(=O)NCCCCc1ccccc1)C2
 : 2, -4, x, -65
O=C(NCc1ccccc1)C1c2ccccc2OCC(=O)N1CCc1c[nH]c2ccccc12 (configuration not stated)
 : 1, 4, x, -86
CC1CCCCc2nc3c(c(=O)n21)CCCC3 (configuration not stated)
 : -1, 7, x, 8
COC(=O)[C@@]12C[C@@H](CC(=O)NCc3cccc4ccccc34)C(=O)N(Cc3cccc4ccccc34)C1=CCC(C)(C)C2
 : -15, -20, x, -5
Cc1ccc2nc(-c3ccc(C#N)cc3)c(Cc3ccccc3)n2c1
 : -1, -4, x, -10
CC(C)(C)c1ccc(C(=O)N2CCC(=O)N([C@H](COCc3ccccc3)Cc3ccccc3)CC2)cc1
 : -3, -8, x, u
O=C(NCCN1CCC(n2c(=O)[nH]c3ccccc32)CC1)c1cc(F)cc(F)c1
 : 3, 4, x, -36

# Compound activity: PubChem, several laboratories
